Source: PubChem BioAssay
PINK1 modulator = PINK1 expression modulation. AID 624263. Potency, µM (top dose mostly 76.6 µM), for the others: top-dose activation (PINK1 increase), most hits filed as activators. hit rate 0.2% among 410,000. PINK1 immunofluorescence, high-content cytometry, 24 h; active = well fitted activation curve with a large enough effect; inconclusive = small, poorly fitted or top-dose-only effect; inactive = flat fitted curve, though single readings scatter; cell line not stated here;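 also: potency is read from the fitted curve at half-maximal effect; % of control where 0% means no effect; nearly all actives have a fitted effect of over 65% in size; a mitochondrial uncoupler was the plate control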
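Decision-based qHTS: stable cells, 24 h exposure to five compound concentrations, CCCP as control. Fixed cells stained for PINK1 plus nuclear, mitochondrial and cell markers, cytometer read.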
D2 PAM = positive allosteric modulators of human D2 dopamine receptor. hit rate 0.23% among 360,000. DiscoveRx D2 beta-arrestin cells, luminescence, 90 min; 100% = 57 uM dopamine signal. potentiation, % (test concentration not listed). AID 624464. P14416; active = potentiation of 50% or more; inconclusive = 30% to 50%; inactive = 30% or less;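 also: compound concentration not given in the record; tested on top of an EC20 dose of dopamine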
Target sequence (P14416 whole entry, looked up): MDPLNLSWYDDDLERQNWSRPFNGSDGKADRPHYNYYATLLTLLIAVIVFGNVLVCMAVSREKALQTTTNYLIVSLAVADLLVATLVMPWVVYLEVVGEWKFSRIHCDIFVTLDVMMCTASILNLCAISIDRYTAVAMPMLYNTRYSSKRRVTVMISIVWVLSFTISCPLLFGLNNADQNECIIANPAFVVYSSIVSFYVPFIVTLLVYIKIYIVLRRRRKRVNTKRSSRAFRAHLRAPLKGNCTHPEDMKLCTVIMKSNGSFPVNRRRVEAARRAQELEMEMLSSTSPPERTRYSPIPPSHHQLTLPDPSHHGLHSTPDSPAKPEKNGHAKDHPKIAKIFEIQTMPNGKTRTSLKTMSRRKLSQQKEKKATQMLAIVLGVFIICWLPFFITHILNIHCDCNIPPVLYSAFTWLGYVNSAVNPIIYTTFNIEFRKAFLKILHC
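PathHunter beta-arrestin assay in DiscoveRx D2 cells. Compounds were added with an EC20 of dopamine (50 nM final) for 90 min at 37 deg C. Luminescence was read 1 h after detection reagent, with 57 uM dopamine as the EC100 control.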
TRPML1 inh = human mucolipin-1 channel inhibition; hit rate 0.02% among 390,000; AID 624415; Q9GZU1; activity change, negative = inhibition, % (test concentration not listed); TRPML1-inducible cells, Ca2+ dye fluorescence, FDSS; active compounds read low; inhibition of EC80 agonist-evoked calcium signal; in the data active means activity change below about -50%; inconclusive means about -30% to -50%; inactive means above about -30%;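 also: stimulus is agonist 54-4 at its EC80 concentration; % is scaled to controls: 0 for no effect and ±100 for the full control effect; compound concentration not given in the record; the text of the record puts the active cut at -80%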
Target sequence (Q9GZU1 whole entry, looked up): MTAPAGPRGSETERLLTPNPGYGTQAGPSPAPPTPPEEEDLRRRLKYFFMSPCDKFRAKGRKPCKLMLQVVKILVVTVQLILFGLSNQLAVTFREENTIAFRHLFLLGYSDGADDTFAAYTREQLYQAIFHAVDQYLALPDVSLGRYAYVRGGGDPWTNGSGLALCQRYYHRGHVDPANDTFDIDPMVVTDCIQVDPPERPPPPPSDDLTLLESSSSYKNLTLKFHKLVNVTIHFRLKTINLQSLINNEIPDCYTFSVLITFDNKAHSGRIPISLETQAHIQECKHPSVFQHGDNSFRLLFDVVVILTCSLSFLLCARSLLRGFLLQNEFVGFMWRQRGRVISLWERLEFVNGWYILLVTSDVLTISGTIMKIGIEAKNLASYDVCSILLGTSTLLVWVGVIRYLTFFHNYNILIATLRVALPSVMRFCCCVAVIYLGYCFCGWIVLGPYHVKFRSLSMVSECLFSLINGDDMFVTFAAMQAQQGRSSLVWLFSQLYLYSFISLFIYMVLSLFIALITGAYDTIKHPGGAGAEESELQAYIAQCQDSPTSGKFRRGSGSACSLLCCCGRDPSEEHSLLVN
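TRPML1-DL cells, Tet-induced overnight (~16 h, 37 °C) at 1,500 cells/well, were loaded with Ca8 no-wash dye plus quencher for 45-90 min at room temperature. Compounds were pinned during FDSS kinetic reading; agonist 54-4 at EC80 (4 uM final) then added.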
TRPML1 ag = activates the human TRPML1 channel; hit rate 0.12% among 410,000; Q9GZU1; TRPML1-expressing cells, Ca2+ dye fluorescence, FDSS; host cell line not named in the record; reference of the full effect not given here; activation, % (no concentration beside the values); in the data active = activation above about 50%; inconclusive = about 30% to 50%; inactive = below about 30%; also: 0% is about no effect; the text of the record puts the active cut at 80%
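Kinetic FDSS Ca2+ read in Tet-induced TRPML1-DL cells (ABD Ca8 dye plus quencher, 45-90 min RT loading): baseline, then compound, then 110 s agonist window; EC80 agonist 54-4 at 4uM final added afterwards for a 110 s antagonist window.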
D2 ag = human D2 receptor agonism in beta-arrestin assay; P14416; DiscoveRx PathHunter D2 beta-arrestin, luminescence, 90 min; 100% = 57 uM dopamine signal; activation, % (test concentration not listed); hit rate 0.084% among 360,000; in the data active = activation above about 40%; inconclusive = about 15% to 40%; inactive = below about 15%; also: compound concentration not given in the record; the text of the record calls up to 30% inactive
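Agonist mode: compounds alone added to overnight-plated D2 PathHunter cells for 90 min at 37 C, with 57 uM final dopamine (EC100) defining full response. Beta-arrestin recruitment detected by chemiluminescent reagent, read after 1 h at ambient temperature.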
Six1-Eya2 blk = Six1/Eya2 interaction inhibition. AID 651725. Q15475+O00167. hit rate 0.56% among 360,000. activity change, % (no concentration beside the values). AlphaScreen GST-Six1/His-Eya2 binding, biochemical; active compounds read low; control for the full effect not named in the record; in the data active = activity change below about -65%; inconclusive = about -30% to -65%; inactive = above about -30%; also: % is scaled to controls: 0 for no effect and ±100 for the full control effect
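Six1/Eya2 binding was read as AlphaScreen signal after compounds were pinned into GST-Six1 plus His-tagged Eya2 (5X stock 250/500 nM) in pH 8.0 Tris/NaCl/TCEP buffer, beads added, then incubated 1 h, 37 C, dark.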
Starred values were filed as active, the others as inactive; u = inconclusive; x = not tested or not shown; [ ] = another dose, or the depositor's remark.

SMILES	PINK1 modulator	D2 PAM	TRPML1 inh	TRPML1 ag	D2 ag	Six1-Eya2 blk
O=C(CC(c1cccs1)N1Cc2ccccc2C1=O)Nc1ccc(F)c(F)c1 (stereo unspecified)	-0.1%	x	4	0.0	x	x
Cc1ccc(-c2nc(SC(C)C(=O)NC3CC3)n[nH]2)cc1 (stereo unspecified)	0.0%	-22	8	-0.4	-2.9	1
O=C(CCC1CCCC1)Nc1cccc(Cc2ccncc2)c1	1.0%	-8	1	1.0	-1.7	10
Cc1ccc(S(=O)(=O)N2CCc3ccccc3C2)cc1	-1.2%	-1	6	0.6	2.2	15
Cc1ccc(C(C)C)c(OCC(=O)NN=C2CCCC(=O)C2)c1	0.0%	-2	-11	-0.7	-1.2	5
O=[N+]([O-])c1ccc(Cl)c(S(=O)(=O)Nc2ccc(-c3ccc(N4CCCC4)nn3)cc2)c1	-0.7%	0	-17	-0.4	5.1	-24
COc1ccc([C@@H]2[C@@H]3C(=O)N(C(C)(C)C)C(=O)[C@@H]3[C@]3(C)C(=O)N(c4cccc(Cl)c4)C(=O)N23)cc1	0.1%	-11	-17	0.6	-4.8	-1
CCOC(=O)c1c(NC(=O)COc2ncnc3ccccc23)sc(C)c1C	3.7%	-3	21	2.2	-4.0	-2
COc1ccc(NC(=O)CSc2ccc(-c3sc(C)nc3C)nn2)cc1OC	1.6%	4	0	-0.7	0.9	-19
O=c1[nH]c(N2CCN(Cc3ccccc3)CC2)nc2c1CCC2	1.7%	-4	34	1.7	-4.8	-4
O=C1c2ccccc2C(=O)N1CC(O)COc1ccccc1Cl (stereo unspecified)	0.2%	-4	9	-1.2	-0.2	5
CCOC(=O)O[C@]1(C(=O)COC(=O)CC)CC[C@H]2[C@@H]3CCC4=CC(=O)C=C[C@]4(C)[C@H]3[C@@H](O)C[C@@]21C	1.9%	-5	-1	-0.4	-6.4	5
Cc1ccc(-n2nc3ccc(NC(=O)c4oc5ccc(C)cc5c4C)cc3n2)cc1	1.8%	x	14	0.1	x	x
CC(C)(C)c1ccc(S(=O)(=O)N2CCN(CC(=O)N3CC(=O)Nc4ccccc43)CC2)cc1	-1.2%	-9	-1	-0.3	-1.9	0
O=C(Nc1ccc(Cl)cc1)C1CC2CCCC(C1)C2=O (stereo unspecified)	-1.1%[38.3 µM]	-16	-7	-0.6	-1.5	2
Cc1cccc(Cn2c(CN3CCCC(C)C3)nc3c2c(=O)n(C)c(=O)n3C)c1 (stereo unspecified)	-0.6%	x	-16	0.1	x	x
CNC(=O)c1cc2cccc(OC)c2oc1=O	-0.7%	-4	-13	0.5	-2.9	-5
COc1ccc(CC(=O)N(Cc2ccccc2)c2ccc(C)cc2)cc1OC	1.8%	-17	19	1.1	0.1	-7
Cn1cc(/C=C(\NC(=O)c2ccccc2Cl)C(=O)NCCCn2ccnc2)c2ccccc21	2.6%	0	-9	0.5	-0.5	0
O=C(CN1CCOC1=O)N1CCCC(N2CCN(c3cccc(C(F)(F)F)c3)CC2)C1 (stereo unspecified)	0.5%	-15	-8	0.0	-0.4	5
Cc1cc2nc(C(C)(C)C)c(Cc3ccccc3)n2c(C)c1Br	u	-12	0	0.8	-9.5	10
COc1ccc(C)cc1NC(=O)C1C2C=CC(C2)C1C(=O)O (stereo unspecified)	1.5%	-22	-12	0.3	-2.5	0
Cc1c2cnn(CC(=O)NCc3ccccn3)c(=O)c2c(C)n1Cc1ccccc1	-0.5%	-5	-10	-0.6	-4.6	-8
C=CCC1(NCc2ccco2)CCN(CC)CC1	0.1%	-6	17	3.3	0.4	2
c1ccc(-c2nc(-c3ccco3)cs2)nc1	0.0%[38.3 µM]	-8	-1	0.4	-2.0	-1
Cc1ccc(S(=O)(=O)N/N=C/c2ccc(O)cc2O)cc1[N+](=O)[O-]	2.3%	-4	-7	0.9	-0.3	-14
C[C@@H](c1ccccc1)N1C[C@@H](COCc2ccccc2)Oc2cc(N3CCC[C@@H]3CO)ccc2S1(=O)=O	4.4%	x	x	0.0	x	5
CC(C)[C@H](NC(=O)N1CC(=O)Nc2ccccc21)C(=O)N1CCC[C@H]1C(=O)O	0.1%	-26	x	x	-8.9	14
CCOC(=O)c1ccc(NC(=O)CC2C(=O)N(c3ccccc3)C(=O)N2Cc2ccc(C)cc2)cc1 (stereo unspecified)	1.2%	x	13	1.0	x	x
N#CCSc1nnc(C2CCCCC2)n1Cc1ccccc1	-1.2%	3	-16	-0.2	-2.8	3

Record cards (already shown):
CCOC(=O)c1ccc(NC(=O)CC2C(=O)N(c3ccccc3)C(=O)N2Cc2ccc(C)cc2)cc1 (stereo unspecified) as listed: PINK1 modulator: 1.2%; D2 PAM: x; TRPML1 inh: 13; TRPML1 ag: 1.0; D2 ag: x; Six1-Eya2 blk: x
Cc1cc2nc(C(C)(C)C)c(Cc3ccccc3)n2c(C)c1Br as listed: PINK1 modulator: u; D2 PAM: -12; TRPML1 inh: 0; TRPML1 ag: 0.8; D2 ag: -9.5; Six1-Eya2 blk: 10

(continued)
SMILES	PINK1 modulator	D2 PAM	TRPML1 inh	TRPML1 ag	D2 ag	Six1-Eya2 blk
CCN1CCN(CCCN(Cc2ccco2)C(=S)Nc2ccc(C)c(Cl)c2)CC1	1.9%	-19	9	-0.5	1.8	-13
O=C1CC(c2ccccc2)CC(O)=C1C=Nc1ccccc1 (stereo unspecified)	4.1%	-15	17	-1.0	-1.6	2
Cc1cccc(CCNC(=O)CNS(=O)(=O)c2ccc3nc(C)sc3c2)c1	-0.3%	-12	15	0.7	5.8	12
C#CC1(NC(=S)Nc2cccc(OC)c2)CCCCC1	0.6%	-2	-5	-0.4	-3.8	-6
Cc1c(C(=O)NC(=S)Nc2ccccc2N2CCCC2)cccc1[N+](=O)[O-]	1.7%	-17	55	2.7	-0.4	u
C/C(=N\O)c1cc(Cl)ccc1O	2.5%	-9	-8	-0.6	-2.1	2
O=C(NNc1ccc([N+](=O)[O-])cc1)Nc1ccccc1	0.8%	24	x	x	u	3
O=C1C2C3C=CC(CNS(=O)(=O)c4ccccc4)(O3)C2C(=O)N1c1ccc(Cl)cc1 (stereo unspecified)	7.7%	-21	-13	-0.3	-3.6	-7
CCOC(=O)N1CCN(S(=O)(=O)c2ccc(C)cc2)CC1	-0.4%	-21	0	-1.4	-4.4	-16
CC(=O)COc1ccc2c(C)c(-c3ccccc3)c(=O)oc2c1	-0.3%	0	-5	3.6	3.1	3
CCCCOCCCNC(=O)C1CCCCC1	4.1%[38.3 µM]	0	4	0.1	0.8	8
Cc1cccc(NC(=O)c2cc(S(=O)(=O)N3CCCC3)cn2C)c1	4.8%	-6	-8	-0.5	-4.4	-2
Cc1ccc2cc(C#N)c(N3CCCN(C(=S)NCCCN(C)C)CC3)nc2c1	-0.6%	-7	-10	-0.7	0.9	-1
O=C(NCc1ccccc1)c1ccc(CN2CCOCC2)cc1	-1.4%	-6	2	-0.2	-1.2	7
COc1ccc(N2CC(C(=O)N3CCN(c4ccccc4OC)CC3)CC2=O)cc1 (stereo unspecified)	2.0%	-1	6	-0.5	3.4	7
O=C(COc1ccccc1)NCC(c1ccco1)N1CCN(c2ccc(F)cc2)CC1 (stereo unspecified)	3.8%	-6	18	1.4	2.5	-19
COc1ccc(S(=O)(=O)NCCSc2ccc(C)cc2)cc1OC	2.4%	5	0	1.3	-0.3	3
CCCOC(=O)c1ccc(NC(=O)c2cnccn2)cc1	1.4%	7	-1	1.1	1.6	5
COC(=O)CSc1nnc(CNC(=O)c2ccc(S(=O)(=O)N3CCCCC3)cc2)n1C	7.1%[38.3 µM]	2	9	0.0	0.7	1
CCCOc1cccc(C(=O)N(Cc2ccc(OC)c(OC)c2)C2CCS(=O)(=O)C2)c1 (stereo unspecified)	-2.0%[38.3 µM]	-4	6	0.3	-3.2	-12

4 entries from above, reformatted:
Cc1ccc2cc(C#N)c(N3CCCN(C(=S)NCCCN(C)C)CC3)nc2c1
  PINK1 modulator = -0.6%; D2 PAM = -7; TRPML1 inh = -10; TRPML1 ag = -0.7; D2 ag = 0.9; Six1-Eya2 blk = -1
Cc1cccc(NC(=O)c2cc(S(=O)(=O)N3CCCC3)cn2C)c1
  PINK1 modulator = 4.8%; D2 PAM = -6; TRPML1 inh = -8; TRPML1 ag = -0.5; D2 ag = -4.4; Six1-Eya2 blk = -2
CCCOC(=O)c1ccc(NC(=O)c2cnccn2)cc1
  PINK1 modulator = 1.4%; D2 PAM = 7; TRPML1 inh = -1; TRPML1 ag = 1.1; D2 ag = 1.6; Six1-Eya2 blk = 5
CCCCOCCCNC(=O)C1CCCCC1
  PINK1 modulator = 4.1%[38.3 µM]; D2 PAM = 0; TRPML1 inh = 4; TRPML1 ag = 0.1; D2 ag = 0.8; Six1-Eya2 blk = 8

(listing goes on)
SMILES	PINK1 modulator	D2 PAM	TRPML1 inh	TRPML1 ag	D2 ag	Six1-Eya2 blk
NC(COCc1ccccc1)c1csc(Nc2ccc(C(F)(F)F)cn2)n1 (stereo unspecified)	0.5%	1	x	1.2	5.7	-5
CC(Cc1ccccc1)=NNS(=O)(=O)c1ccc([N+](=O)[O-])cc1	2.6%	-2	7	0.1	-0.7	5
Cc1cc(NC(=O)Nc2cccc(C(F)(F)F)c2)n(C)n1	1.1%	-22	30	1.0	-4.4	11
COc1ccccc1-c1cc(C(=O)NC(C)c2ccccc2)no1 (stereo unspecified)	8.1%[38.3 µM]	-16	0	3.6	-0.6	5
Cc1ccc(NC(=O)c2ccco2)c(NC(=O)c2ccccc2C)c1	1.6%	-11	-10	-1.8	-7.4	-21
O=C(c1n[nH]c2ccccc12)N1CCN(c2ccc(F)cc2)CC1	2.9%	-60	-6	-0.9	-2.6	-19
COc1ccc(N2CCN(C3CCCN(S(=O)(=O)c4ccc(C)cc4C)C3)CC2)cc1 (stereo unspecified)	0.7%	-29	-2	-1.5	2.2	u
CCc1nc2ccccc2c(C(=O)OCC(=O)N2CC(C)OC(C)C2)c1C (stereo unspecified)	-3.7%	0	1	1.0	-4.9	7
Cc1nc2cc(NC(=O)NCc3ccc4c(c3)OCO4)ccc2o1	-5.3%[38.3 µM]	-2	-8	-0.4	-1.2	1
COc1ccc(OC)c(S(=O)(=O)N/N=C\c2cn(CC(N)=O)c3ccccc23)c1	3.9%	-9	4	0.2	-4.4	7
Fc1cc(F)c(F)c(SCn2cc(Br)cn2)c1F	3.4%	-27	8	-0.3	-3.6	5
COc1ccc(C)cc1NC(=O)COC(=O)CCC(=O)c1cccs1	0.6%	-1	5	-0.7	3.1	4
CC1(C)Oc2ccc3ccc(=O)oc3c2/C(=C/NCCO)C1=O	1.8%	-1	12	-0.8	-1.9	1
Clc1ccc(Oc2nc(Oc3ccc(Cl)cc3)nc(N3CCOCC3)n2)cc1	-5.0%[38.3 µM]	-1	73	1.7	-3.0	-2
O=C(CCS(=O)(=O)c1ccc(Br)s1)Nc1c(F)cccc1F	0.1%	x	-3	1.7	x	x
Cc1noc(C(=O)NCc2ccc(F)cc2)c1Cl	-0.2%	-5	-1	-0.8	-1.2	-5
Oc1ccc(Br)cc1/C=N/n1c(COc2ccccc2)n[nH]c1=S	3.3%	-5	17	4.5	u	-3
